D2 PAM = positive allosteric modulators of human D2 dopamine receptor; DiscoveRx D2 beta-arrestin cells, luminescence, 90 min; 100% = 57 uM dopamine signal; potentiation, % (no concentration beside the values); 360,000 tested, 0.23% active; AID 624464; active = potentiation of 50% or more; inconclusive = 30% to 50%; inactive = 30% or less;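 further: compound concentration not given in the record; tested on top of an EC20 dose of dopamine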
Target sequence (P14416 whole entry, looked up): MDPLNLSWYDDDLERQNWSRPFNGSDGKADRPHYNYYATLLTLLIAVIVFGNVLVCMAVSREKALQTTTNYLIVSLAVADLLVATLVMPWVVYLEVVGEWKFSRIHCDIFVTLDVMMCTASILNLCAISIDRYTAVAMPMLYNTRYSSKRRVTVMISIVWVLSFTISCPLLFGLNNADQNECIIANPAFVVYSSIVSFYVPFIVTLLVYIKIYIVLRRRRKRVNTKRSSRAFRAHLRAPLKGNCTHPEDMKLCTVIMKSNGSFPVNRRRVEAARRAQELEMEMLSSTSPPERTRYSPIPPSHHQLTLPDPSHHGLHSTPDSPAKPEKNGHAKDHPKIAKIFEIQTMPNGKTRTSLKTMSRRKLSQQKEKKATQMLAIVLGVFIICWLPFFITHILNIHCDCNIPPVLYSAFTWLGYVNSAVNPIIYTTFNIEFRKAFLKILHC
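PathHunter D2 cells, attached overnight at 37 deg C, received compound in DMSO plus dopamine at EC20 (50 nM final) for 90 min at 37 deg C. Beta-arrestin recruitment was read as luminescence after 1 h with detection reagent at ambient temperature.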
Sfp PPTase inh = blocks B. subtilis Sfp PPTase activity | Q9F4F7 | Biochemical Sfp PPTase activity, qHTS | Potency, µM, for inactives: max response, negative = inhibition, usual class: inhibitors | 310,000 tested, 3.5% active | AID 1490; active means well fitted inhibition curve with a large enough effect; inconclusive means small, poorly fitted or top-dose-only effect, or another doubt; inactive means no such curve, though single readings can be large or run the other way;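 further: the enzyme is Sfp with the accession as filed and its product quenches rhodamine fluorescence; potency means the concentration at half of the fitted maximal effect; 0% = enzyme reaction without inhibitor and -100% = no enzyme wells; top concentration of the series not given in the record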
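Fluorescence-quenching assay with 15 nM Sfp, 5 uM rhodamine-CoA and 12.5 uM BHQ-2-labelled ybbR peptide in pH 7.6 Hepes/MgCl2 buffer. Enzyme was pre-incubated with compound for 15 min at room temperature. Rate was taken from the 30-min fluorescence change (525/598 nm).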
Menin MLL FP FL = menin-MLL binding inhibition, fluorescein peptide; 290,000 tested, under 10 active; Fluorescence polarization, fluorescein-MLL peptide displacement from menin; FP activity change, % at 61.4 µM; inconclusive = falling polarisation curve, or a change in total fluorescence; inactive = total fluorescence flat and polarisation flat or rising; no compound was filed as active; the % refers to the polarisation; negative = inhibition;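 further: % of control where 0% means no effect; inhibitors lower the polarisation; unlabelled MLL peptide was the positive control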
ClpP mod = qHTS Assay for Activators of ClpP; ATP-dependent Clp protease proteolytic subunit (Bacillus subtilis (strain 168)), P80244; purified B. subtilis ClpP, FRET peptide cleavage, 20 min; Potency, µM (highest dose often 57.5 µM), for inactives: at the highest dose activity change, negative = active; 340,000 tested, 1.9% active; active = well fitted falling curve with a large enough effect; inconclusive = small, poorly fitted or top-dose-only effect; inactive = no such curve, though single readings can be large or run the other way; further: potency means the concentration at half of the fitted maximal effect; the source files actives as falling curves though it sought activators and does not explain the sign; nearly all actives have a fitted effect of over 65% in size; many hits overshoot -100%
Target sequence (P80244 whole entry, looked up): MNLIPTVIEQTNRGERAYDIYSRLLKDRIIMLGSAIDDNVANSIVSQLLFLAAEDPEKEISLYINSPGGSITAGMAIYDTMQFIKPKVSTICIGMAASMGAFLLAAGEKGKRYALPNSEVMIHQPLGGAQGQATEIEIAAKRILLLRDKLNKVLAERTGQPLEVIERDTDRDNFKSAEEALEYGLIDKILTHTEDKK
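FRET quenching reversal measured ClpP activation: 10 microg/mL B. subtilis ClpP at pH 8 with the FRET-FV decapeptide, read at 430 nm after 320 nm excitation. The 20-min minus 0-min signal was scaled between DMSO/no-enzyme wells and ADEP (5.8 microM final).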
TRPV1 potentiator = enhances activation of the human vanilloid receptor TRPV1 | Q8NER1 | TRPV1-expressing cells, Fluo-8 calcium influx, capsaicin EC20 potentiation; host cell line not named in the record; control for the full effect not named in the record | potentiation, % at 8.33 µM | 320,000 tested, 0.02% active; active means potentiation above 80%; inconclusive means 30% to 80%; inactive means below 30%; further: 0% is about no effect
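Fluo-8 calcium influx in TRPV1-expressing cells, kinetic read (ex 480/em 520 nm). Compound added and read 3 min for agonist activity, followed by capsaicin at EC20 final and 2 min further read for enhancement.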
gsp agonist = agonists of gsp mutant (McCune-Albright syndrome) | gsp mutant cells, cAMP HTRF, 30 min; control for the full effect not named in the record | Potency, µM (highest dose often 76.9 µM), inactives show at the highest dose activation (cAMP increase), hits mostly activators | 340,000 tested, 0.13% active | AID 624287; active = well fitted activation curve with a large enough effect; inconclusive = small, poorly fitted or top-dose-only effect, or another doubt; inactive = no such curve, though single readings can be large or run the other way; cell line not stated here;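 further: phosphodiesterase inhibitor Ro 20-1724 added with compounds to block cAMP breakdown; potency means the concentration at half of the fitted maximal effect; nearly all actives have a fitted effect of over 60% in size; about a fifth of the inactives were tested at one dose only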
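Cells stably selected in G418 were plated at 2000/well, grown 16-24 hr, then given compounds in DMSO with the PDE inhibitor […] (300 uM solution added) for 30 min at 37C; cAMP was read by HTRF.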
gsp antagonist = gsp mutant antagonism; gsp-mutant cells, cAMP HTRF, 30 min; control for the full effect not named in the record; Potency, µM (highest dose often 76.9 µM), for the others: top-dose activity change, negative = inhibition, most hits filed as inhibitors; 340,000 tested, 0.4% active; active = falling curve of any shape with a large fitted effect; inconclusive = falling curve, mostly with a smaller effect; inactive = flat or rising curve; cell line not stated here;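 further: intracellular cAMP measured with PDE inhibitor Ro 20-1724 present during compound exposure; potency means the concentration at half of the fitted maximal effect; on the % scale 0 is the no-effect control and ±100 the full control effect; nearly all actives have a fitted effect of over 65% in size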
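Measurement of cellular cAMP by homogeneous time-resolved fluorescence following a 30 min compound exposure at 37C. The PDE inhibitor […] was present throughout; the assay buffer was DPBS with 0.05% BSA and 0.005% Tween 20.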
* hit, by the source's call; & = joins results of further samples; [ ] = dose if it differs, or a comment.

O=C(CCN1CCCCC1)NNC(=O)C12CC3CC(CC(C3)C1)C2 was read as D2 PAM -2.4, Sfp PPTase inh 11.9%, Menin MLL FP FL 2.4, ClpP mod 0.8%, TRPV1 potentiator 2.3, gsp agonist -16.5%[15.4 µM] and gsp antagonist 10.9%.
For CCC(C)NCCOCCOc1ccc(Cl)c(C)c1C (stereo not given) the results were D2 PAM -37.1, Sfp PPTase inh -3.8%, Menin MLL FP FL 2.7, ClpP mod -2.6%, TRPV1 potentiator 4.9, gsp agonist 1.1% and gsp antagonist 8.7%.
CC(C)=CCN1CCN(CCCn2cccn2)CC1CCO (stereo not given) was read as D2 PAM -9.3, Sfp PPTase inh 6.8%, Menin MLL FP FL -3.6, TRPV1 potentiator 4.7, gsp agonist 10.2% and gsp antagonist 5.5%.
Screening Cc1ccc(OCc2nc(C#N)c(NCc3ccco3)o2)cc1 returned D2 PAM 0.5, Sfp PPTase inh -7.4%, Menin MLL FP FL 0.9, ClpP mod 0.2%, TRPV1 potentiator 24.0, gsp agonist 0.6% and gsp antagonist 0.7%.
`O=C(Cn1ccsc1=NC(=O)C(F)(F)F)c1ccccc1` gave D2 PAM -33.4, Sfp PPTase inh 22.3%, Menin MLL FP FL 3.9, ClpP mod 1.5%, TRPV1 potentiator -24.8, gsp agonist -47.5%[inhibitor] and gsp antagonist -8.0%.
`COc1cccc(C2N(c3ccc(Cl)cc3)C(=O)C3CCCN32)c1` (stereo not given) gave D2 PAM -3.3, Sfp PPTase inh 9.6%, Menin MLL FP FL 3.6, ClpP mod -2.6%, TRPV1 potentiator 20.1, gsp agonist -45.2%[inhibitor] and gsp antagonist 0.9%.
`COC(=O)C1=C(N)OC2=C(C(=O)CCC2)C1c1cccs1` (stereo not given) gave D2 PAM -3.3, Sfp PPTase inh 0.4%, Menin MLL FP FL 1.5, ClpP mod -0.7%, TRPV1 potentiator -34.2, gsp agonist -34.7%[inhibitor] and gsp antagonist -9.1%.
`CN(Cc1ccccc1)C(=O)CCC1CCN(C(=O)CC2=CCCCC2)CC1` gave D2 PAM 0.2, Sfp PPTase inh 3.5%, Menin MLL FP FL 2.8, ClpP mod -1.2%, TRPV1 potentiator 12.6, gsp agonist -1.9% and gsp antagonist 2.3%.
For Cn1c2c(c(=O)n(C)c1=O)C(CC(=O)Nc1ccccc1)C(=O)N2 (stereo not given) the results were D2 PAM -12.3, Sfp PPTase inh 31.0%[activator], Menin MLL FP FL 1.2, ClpP mod -13.2%, TRPV1 potentiator 4.0, gsp agonist 23.8% and gsp antagonist 4.1%.
CCC(C)c1ccccc1N1CC(C(=O)N2CCN(S(=O)(=O)c3cccc([N+](=O)[O-])c3)CC2)CC1=O (stereo not given) was read as D2 PAM 8.0, ClpP mod -0.4%, TRPV1 potentiator -0.9, gsp agonist -46.4%[inhibitor] and gsp antagonist -11.3%.
`Cc1oc2c(C)c(O)ccc2c(=O)c1N1C(=O)c2ccccc2C1=O` gave D2 PAM -5.5, Sfp PPTase inh 2.0%, Menin MLL FP FL 2.6, ClpP mod 1.9%, TRPV1 potentiator -0.6, gsp agonist 5.3% and gsp antagonist -1.7%.
Screening CCOC(=O)c1c(NC(=O)C2COc3ccccc3O2)sc2c1CCN(Cc1ccccc1)C2 (stereo not given) returned D2 PAM -26.5, Sfp PPTase inh -22.6%, Menin MLL FP FL 5.1, ClpP mod 25.1µM*, TRPV1 potentiator -15.1, gsp agonist 2.8% and gsp antagonist -4.0%.
Cc1onc(-c2ccccc2Cl)c1C(=O)NNC(=O)c1ccc(F)cc1 was read as D2 PAM -4.0, Sfp PPTase inh 2.4%, Menin MLL FP FL 6.5, TRPV1 potentiator 3.7, gsp agonist -37.4%[inhibitor] and gsp antagonist 4.8%.
For Cc1cc(C)n2nc(C(=O)N3CCN(c4ccc([N+](=O)[O-])cc4)CC3)nc2n1 the results were D2 PAM 2.8, Sfp PPTase inh 18.0%, Menin MLL FP FL -4.5, ClpP mod 0.0%, TRPV1 potentiator 12.0, gsp agonist 26.5% and gsp antagonist 11.2µM*.
Screening Cc1cc(=O)oc2cc(OCC(=O)NCCCN3CCCC3=O)ccc12 returned D2 PAM 0.6, Sfp PPTase inh 22.9%, Menin MLL FP FL 0.0, ClpP mod 4.4%, TRPV1 potentiator 0.4, gsp agonist -23.4% and gsp antagonist -3.3%.
`COc1cccc(OC)c1C(=O)Nc1ccc(S(=O)(=O)N2CCCCC2)cc1` gave D2 PAM -3.6, Sfp PPTase inh 2.2%, Menin MLL FP FL 0.5, ClpP mod -7.9%, TRPV1 potentiator 5.4, gsp agonist 8.4%[15.4 µM] and gsp antagonist 2.3%.
`O=C(c1cccc(C(F)(F)F)c1)N1CCCC1` gave D2 PAM -10.9, Sfp PPTase inh 16.5%, Menin MLL FP FL -1.8, ClpP mod 0.3%, TRPV1 potentiator -4.4, gsp agonist 3.6% and gsp antagonist 9.4%.
COc1ccc2[nH]c(=O)cc(C(=O)O)c2c1 was read as D2 PAM -8.4, Sfp PPTase inh 9.1%, Menin MLL FP FL -0.4, TRPV1 potentiator 12.6 and gsp agonist -4.5%[15.4 µM].
For CC1(C)CC(=O)C=C(c2ccc(COC(=O)/C=C/c3ccccc3)cc2)C1=O the results were D2 PAM 2.9, ClpP mod -0.7% and gsp agonist -105.7%[inhibitor].
For COCC(C)n1c(C)cc(C(=O)COC(=O)c2ccc3c(c2)NC(=O)CS3)c1C (stereo not given) the results were D2 PAM -7.4, Sfp PPTase inh -17.6%, Menin MLL FP FL 9.6, ClpP mod -3.9%, TRPV1 potentiator -0.4, gsp agonist 26.6% and gsp antagonist -7.0%.
`Cc1ccccc1-n1c(SCC(=O)NC2CC2)nc2ccccc2c1=O` gave D2 PAM -3.1, ClpP mod 0.3% and gsp agonist -14.6%.
Cc1ccc(NC(=O)c2cc(=O)c3ccccc3o2)cc1S(=O)(=O)N1CCOCC1 was read as D2 PAM -9.3, Sfp PPTase inh -2.7%, Menin MLL FP FL 3.1, ClpP mod -0.2%, TRPV1 potentiator -25.1, gsp agonist 7.8% and gsp antagonist -9.7%.
O=C(Nc1cccc(S(=O)(=O)Nc2ccc(SC(F)F)cc2)c1)C1CCC1 was read as D2 PAM -4.8, gsp agonist 2.2% and gsp antagonist -25.9%.
Screening COc1nc(-c2ccccc2)ccc1-c1noc(-c2ccc(F)cc2)n1 returned Sfp PPTase inh 6.2%, Menin MLL FP FL -2.1 and TRPV1 potentiator 2.2.
CC(C)[C@H](NC(=O)c1ccccc1)C(=O)OCC(=O)N1CC2(C)CC1CC(C)(C)C2 (stereo not given in full) was read as D2 PAM -22.0, Sfp PPTase inh -3.1%, Menin MLL FP FL -0.5, ClpP mod 2.5%, TRPV1 potentiator -9.0, gsp agonist -13.1% and gsp antagonist 14.6%.
`CC(C)(C)c1ccc(C(=O)c2c[nH]c(C(=O)O)c2)cc1` gave D2 PAM -4.8, Sfp PPTase inh -18.0%, Menin MLL FP FL -6.4, TRPV1 potentiator 4.2, gsp agonist 8.8%[15.4 µM] and gsp antagonist -3.0%.
`CCC(C)NC(=O)Cn1ccc2cc(S(=O)(=O)N3CCCCCC3)ccc21` (stereo not given) gave D2 PAM -4.7, Sfp PPTase inh 18.9%, Menin MLL FP FL 3.2, ClpP mod -2.5%&-3.1%, TRPV1 potentiator -8.3, gsp agonist inconclusive and gsp antagonist 1.2%.
For COc1ccc(N2C(=O)CSC2c2cccs2)cc1 (stereo not given) the results were D2 PAM -14.4, Sfp PPTase inh 10.0%, Menin MLL FP FL -0.8, ClpP mod -4.3%, TRPV1 potentiator inconclusive, gsp agonist -47.9%[inhibitor] and gsp antagonist -6.8%.
Screening O=C(NCc1ccc(N2CCCC2=O)cc1)c1cccc(Cl)c1 returned D2 PAM -9.2, Sfp PPTase inh 10.8%, Menin MLL FP FL -6.5, ClpP mod -0.1%, TRPV1 potentiator 11.3, gsp agonist -15.0%[15.4 µM] and gsp antagonist 3.5%.
COc1ccc(OCCCC(=O)N2CCCc3ccccc32)cc1 was read as D2 PAM 2.1, Sfp PPTase inh 3.4%, Menin MLL FP FL -1.2, ClpP mod 4.8%, TRPV1 potentiator 11.3, gsp agonist 1.5% and gsp antagonist 4.4%.
Screening Cc1nc(N2CCN(S(=O)(=O)c3cccc4nonc34)CC2)c2c3c(sc2n1)CCCC3 returned D2 PAM -5.1, Sfp PPTase inh 2.8%, Menin MLL FP FL 0.4, ClpP mod -2.3%, TRPV1 potentiator 10.9, gsp agonist -28.0% and gsp antagonist -11.1%.
O=C(NC1=NCCS1)c1ccc(OCC2CCCO2)cc1 (stereo not given) was read as D2 PAM 5.1, Sfp PPTase inh 18.3%, Menin MLL FP FL 5.4, ClpP mod -4.2%, TRPV1 potentiator -1.2, gsp agonist 3.0% and gsp antagonist 2.5%.
Screening O=C1C(c2ccc(F)cc2)N(Cc2ccc3c(c2)OCO3)C(=O)CN1C1CCCC1 (stereo not given) returned D2 PAM -18.3, Sfp PPTase inh 6.6%, Menin MLL FP FL 0.8, ClpP mod -0.4%, TRPV1 potentiator -23.3, gsp agonist 3.8% and gsp antagonist -2.1%.
COc1cc2ccccc2cc1C(=O)Nc1ccc(Br)cn1 was read as D2 PAM -2.5, Sfp PPTase inh 9.4%, Menin MLL FP FL -0.7, ClpP mod 3.55µM*, TRPV1 potentiator 6.5, gsp agonist -10.0% and gsp antagonist inconclusive.
COc1cc(OC)nc(NC2OC(=O)c3ccccc32)n1 (stereo not given) was read as D2 PAM 0.9, Sfp PPTase inh -1.3%, Menin MLL FP FL 5.3, ClpP mod -1.7%, TRPV1 potentiator 18.9, gsp agonist -11.6% and gsp antagonist -3.1%.
`Cc1ccc(S(=O)(=O)N2CCN(C(=O)COC(=O)Cc3c(F)cccc3Cl)CC2)c(C)c1` gave D2 PAM 2.1, ClpP mod -2.6%, gsp agonist -2.6% and gsp antagonist 0.8%.
For Cc1c(NC(=S)NC(=O)c2ccccc2)c(=O)n(-c2ccccc2)n1C the results were D2 PAM -7.8, ClpP mod 0.2%, gsp agonist 7.7%[15.4 µM] and gsp antagonist 15.0%.
`CC/C(O)=C1\C(=O)CCCC1=NCCc1nc2ccccc2[nH]1` gave Sfp PPTase inh 17.3%, Menin MLL FP FL -0.8 and TRPV1 potentiator 0.4.

Bioassay records: PubChem, National Center for Advancing Translational Sciences (NCATS)
